A488 fluor: A488 region autofluorescence | compound autofluorescence, A488 spectral region, dye equivalency; active compounds read high | max dye equivalency, M | actives 0.1% (n = 59,000); active = above 10 nM dye equivalent; inconclusive = 1 to 10 nM; inactive = 1 nM or less; about half of its hits are not listed in these tables;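 also: highest value over a series up to 38 µM; compound alone in buffer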
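Readout is A488 dye-equivalent concentration, calibrated by a per-plate six-point Alexa 488 series. Compounds in 100 mM Tris buffer pH 8.0 were incubated 15 min at room temperature. Plates were imaged using 480 nm excitation/540 nm emission filters.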
AID923: qHTS Assay for Allosteric/Competitive Inhibitors of Caspase-1: Spectroscopic Profiling in AFC Spectral Region | Potency, µM (top dose mostly 57.5 µM), for the others: at the top dose fluorescence increase, usual class: activators | actives 1.1% (n = 75,000) | compound fluorescence, AFC spectral region (405/520 nm); almost no hit is shown here; active = well fitted activation curve with a large enough effect; inconclusive = small, poorly fitted or top-dose-only effect;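 also: potency is read from the fitted curve at half-maximal effect; 0% is about no effect; scaled to a free AFC standard on each plate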
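Baseline compound fluorescence (AFC region, 405 nm ex/520 nm em) taken from the intercept of kinetic reads with 50 nM caspase-1 and 5 uM Ac-WEHD-AFC; normalized to an on-plate AFC standard curve; compounds titrated up to 57 uM.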
A647 autofl: compound autofluorescence in A647 spectral region | Compound fluorescence, A647 channel (570/671 nm), Tris buffer | max dye-equivalent concentration, M | 59,000 tested, under 10 active; active means above 1 µM dye equivalent; inconclusive means 0.1 to 1 µM; inactive means 0.1 µM or less;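 also: values scaled relative to a standard on each plate; highest value over a series up to 38 µM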
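Fluorescence read (570 nm ex, 671 nm em) after 15 min RT incubation of compounds in 100 mM Tris buffer, pH 8.0; values expressed as dye-equivalent concentration against a six-point A647 standard series on each plate.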
Resorufin autofl: resorufin region autofluorescence. actives 0.04% (n = 59,000). max dye-equivalent concentration, M. AID 588. Compound fluorescence, resorufin region 547/598 nm, buffer; active compounds read high; active = above 10 nM dye equivalent; inconclusive = 1 to 10 nM; inactive = 1 nM or less; a few of its hits are not listed in these tables; also: highest value over a series up to 38 µM
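Tris 100 mM pH 8.0; compound added, 15 min RT; CCD imager read, ex 547 nm/em 598 nm; signal normalized to resorufin standard curve (six concentrations per plate) as dye-equivalent concentration.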
TSHR ag: TSH receptor (human) agonism; Potency, µM (titrated, usually from 57.1 µM), for the others: at the highest dose activation, usual class: activators; actives 0.48% (n = 73,000); AID 926; HEK293-CNG-TSHR cells (CNG channel as cAMP sensor), membrane potential dye, cAMP; active = well fitted activation curve of enough size with the parental cells flat; inconclusive = any curve in the parental cells; inactive = parental cells flat and receptor cells flat or falling; also: potency is read from the fitted curve at half-maximal effect; % of control where 0% means no effect; weak receptor curves with flat parental cells got no call and are not listed
Target sequence (P16473 whole entry, looked up): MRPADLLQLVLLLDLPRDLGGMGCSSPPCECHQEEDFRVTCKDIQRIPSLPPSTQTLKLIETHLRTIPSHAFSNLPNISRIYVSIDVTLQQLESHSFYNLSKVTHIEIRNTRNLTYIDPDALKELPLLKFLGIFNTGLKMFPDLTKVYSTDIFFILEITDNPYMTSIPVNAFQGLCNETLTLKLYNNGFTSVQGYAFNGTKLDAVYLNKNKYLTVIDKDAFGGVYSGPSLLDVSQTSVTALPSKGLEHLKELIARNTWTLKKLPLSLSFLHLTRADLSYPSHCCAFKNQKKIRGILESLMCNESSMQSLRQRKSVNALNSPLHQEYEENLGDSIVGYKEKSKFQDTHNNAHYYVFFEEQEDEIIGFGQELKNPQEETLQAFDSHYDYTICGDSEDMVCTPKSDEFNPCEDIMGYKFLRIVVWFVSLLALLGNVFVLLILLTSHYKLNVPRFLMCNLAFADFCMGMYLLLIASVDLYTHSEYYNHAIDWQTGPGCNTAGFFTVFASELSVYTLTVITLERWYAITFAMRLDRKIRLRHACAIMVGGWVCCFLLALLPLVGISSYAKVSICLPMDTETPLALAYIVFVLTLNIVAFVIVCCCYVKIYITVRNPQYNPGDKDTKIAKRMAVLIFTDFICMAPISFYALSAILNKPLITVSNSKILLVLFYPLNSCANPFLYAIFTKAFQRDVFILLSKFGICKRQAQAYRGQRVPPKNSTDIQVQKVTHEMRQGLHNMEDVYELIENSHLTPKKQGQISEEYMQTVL
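cAMP rise detected as CNG-channel membrane depolarization by fluorescent dye (emission 590 nm), 30 min after compound, following 60 min dye loading containing 100 uM RO 20-1724 at room temperature. Cells: TSHR/CNG HEK 293, with parental CNG HEK 293 as control.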
* = called active by the depositor; i = inactive; ? = inconclusive; · = not tested or not shown; [ ] = another dose, or the depositor's remark. Not all compounds are listed; count on the stated rates, not on these rows.

SMILES	A488 fluor	AID923	A647 autofl	Resorufin autofl	TSHR ag
O=C(NC1CCCC1)C1C2C=CC(C2)C1C(=O)N1CCOCC1 (centres undefined)	i	-1.6%	3e-09	i	1%
COc1ccc(CNC(=O)C(c2cccs2)N(C(=O)c2csnn2)C2CC2)cc1 (centres undefined)	i	-1.1%	1.8e-09	i	3%
CCC(=O)N1CCN(c2ccc(Cl)cc2NC(=O)c2ccc(Br)o2)CC1	i	-0.5%	3.2e-08	i	6%
CCOC(=O)c1cccc(NC(=O)CCn2nnc3ccccc32)c1	i	0.5%	5.7e-08	i	27%
Nn1c(SCC(=O)NCc2ccccc2)nnc1C1CC1	i	0.1%	8.3e-09	i	-3%
CS(=O)(=O)Nc1ccccc1C(=O)c1ccccc1	i	-0.4%	1.1e-08	i	12%
CCc1nnc(NC(=O)CSc2nnc(-c3ccccc3O)n2-c2ccc(C)cc2)s1	i	-0.7%	1e-09	i	?
c1ccc(N2CCN(c3c4c(nc5ncnn35)CCC4)CC2)cc1	i	1.0%	1e-09	i	?
Cc1ccc(N(C(C)C(=O)O)S(=O)(=O)c2c(C)n[nH]c2C)cc1 (centres undefined)	i	0.4%	1.9e-08	i	-3%
c1ccc(Cn2c(SCCN3CCOCC3)nnc2-c2cccnc2)cc1	i	-0.4%	2e-08	i	1%
CN(CCc1ccccn1)C(=O)CN(C)S(=O)(=O)c1ccc2c(c1)c(=O)n(C)c(=O)n2C	i	-0.6%	3.3e-09	i	-13%
CC(C)[C@H](NC(=O)OC(C)(C)C)c1nnc(SCc2cccc(F)c2)o1	i	1.0%	1.2e-09	i	?

Next part; the last 2 above are carried over.
SMILES	A488 fluor	AID923	A647 autofl	Resorufin autofl	TSHR ag
CN(CCc1ccccn1)C(=O)CN(C)S(=O)(=O)c1ccc2c(c1)c(=O)n(C)c(=O)n2C	i	-0.6%	3.3e-09	i	-13%
CC(C)[C@H](NC(=O)OC(C)(C)C)c1nnc(SCc2cccc(F)c2)o1	i	1.0%	1.2e-09	i	?
O=C(O)c1cc(=O)[nH]c(=O)[nH]1	·	2.4%	·	·	-3%
COc1ccccc1N1C(=O)c2ccccc2NC1c1ccncc1 (centres undefined)	i	8.5%	3.9e-08	i	23%
c1ccc(CNc2ncnc3ccc(-c4ccc5c(c4)OCO5)cc23)cc1	i	2.8%	9.4e-09	i	?
Cc1ccc2c(c1)cc(CN(Cc1ccc3c(c1)OCO3)S(=O)(=O)c1ccccc1)c1nnnn12	i	-0.2%	1.6e-09	i	20%
Cc1csc(NC(=O)Cn2cnnn2)n1	i	-2.4%	1.8e-08	i	5%
NC(=O)c1nnn(Cc2cc(Cl)c(C(=O)c3ccc(Cl)cc3)c(Cl)c2)c1N	i	-1.1%[11.5 µM]	1e-09	i	8%[11.4 µM]
Cc1noc(C)c1C(=O)NCCc1ccc(Cl)cc1	i	-2.6%	6.3e-09	i	-1%
CCOc1ccc(OCC(=O)Nc2ccc(S(=O)(=O)Nc3cc(C)nc(C)n3)cc2)cc1	i	-0.6%	2.2e-08	i	-3%
Cc1cccc(N(CC(=O)NCc2ccco2)C(=O)CCC(=O)Nc2ccccn2)c1	i	0.5%	2.9e-08	i	5%
CCN(CC)C(=O)CSc1ccccc1N	·	0.9%	·	·	4%
O=C1CN(C(=O)OCc2ccccc2)c2ccccc2N1	i	-3.0%	5.1e-08	i	3%
CCC(=O)Oc1ccc2c(C)cc(=O)oc2c1C	·	9.2%	·	·	-7%
O=C(Nc1ccc2ccccc2c1)[C@@H]1C[C@H]1[C@@H](NP(=O)(c1ccccc1)c1ccccc1)c1ccccc1	·	1.1%	·	·	-1%
C[C@H]1C[C@H]2[C@H]3CCC4=CC(=O)C=C[C@@]4(C)[C@]3(F)[C@H](O)C[C@]2(C)[C@@]1(O)C(=O)COP(=O)(O)O	i	-2.0%[11.5 µM]	1.7e-08	i	-1%[11.4 µM]
O=C(CCn1cccc1)NCc1ccc2c(c1)OCO2	·	2.5%	·	·	5%
CN1CCN(C(=O)c2cc(-c3cccc(Cl)c3)on2)CC1	i	0.3%	1e-09	i	9%
COc1ccccc1NC1=C(C)C(=O)CC1	·	-1.7%	·	·	2%
Cc1cc(C)cc(OCC(=O)NCC2CCCO2)c1 (centres undefined)	·	0.6%	·	·	18%
Cc1cc(=O)n2nc(N3CCC(C(=O)NCCC4=CCCCC4)CC3)sc2n1	i	-1.0%	2.4e-08	i	0%
CCc1ccc(NC(=O)c2cc(C)on2)cc1	i	2.2%	1e-09	i	-4%
COc1cccc(OCC(O)CN2CC(C)CC(C)C2)c1 (centres undefined)	i	-0.3%	1.5e-08	i	1%[11.4 µM]
COC(=O)c1cccc(NC(=O)C(C)N2C(=O)c3ccccc3C2=O)c1 (centres undefined)	·	2.5%	·	·	5%
COc1ccc(O)c(-c2[nH]ncc2C(=O)c2ccccc2)c1	i	0.8%	1e-09	i	·
O=C(CN1CCN(C2CCCCC2)CC1)Nc1ccccc1N1CCCCC1	i	-3.1%	6.4e-08	i	?
CCCCc1ccc(C(=O)NC(C(=O)O)C(C)C)cc1 (centres undefined)	i	-1.2%	3.3e-09	i	-1%
Cc1ccc(N(C(C)C(=O)O)S(=O)(=O)c2c(C)[nH]c(=O)[nH]c2=O)cc1 (centres undefined)	·	3.1%	·	·	?
Cc1cc(C)n(-c2nc3c(c(=O)[nH]c(=O)n3C)n2CCc2ccccc2)n1	i	0.6%	1e-09	i	?
Cc1cc2cc(CN(CCCN3CCOCC3)C(=O)NC3CCCCC3)c(=O)[nH]c2cc1C	i	-2.7%	1e-09	i	?
CC(=O)NC(C)c1nc2ccccc2n1Cc1ccccc1F (centres undefined)	i	-1.4%	5.2e-09	i	-1%[11.4 µM]
COC(=O)c1cccc(NC(=O)CSc2nnc(COc3ccccc3)n2C)c1	i	0.0%	3.8e-08	i	3%
CC(C)NC(=O)c1ccc2c(c1)N(CC(=O)N1CCOCC1)C(=O)C(C)(C)O2	i	-0.4%	1e-08	i	1%[11.4 µM]
O=C(CCCC(=O)N(CC(=O)NC1CCCCC1)CC1CCCO1)Nc1ccccn1 (centres undefined)	i	0.4%	2.5e-08	i	?
O=C(N1CCN(c2ccccn2)CC1)N1c2ccccc2Sc2ccccc21	i	1.3%	1e-09	i	·
CCCCC(=O)Nc1nn(C)c2nc3c(C)cccc3cc12	i	14%	2.7e-08	i	-1%
CC1=NOC2(C1)/C(=N/O)CCC/C2=N\O (centres undefined)	i	0.6%	3.1e-08	i	-3%
CCN1CCCC1CNC(=O)c1cc2c(C)nc3ccccc3c2o1 (centres undefined)	i	-2.0%	5.8e-09	i	-1%
Nc1nc(SCC(=O)NCCCN2CCOCC2)nc2sc3c(c12)CCC3	·	3.7%	·	·	?
Cc1ccc(-c2nc(N)n(S(C)(=O)=O)n2)cc1	i	-4.3%	2.8e-08	i	·
CCOC(=O)C1CCN(C(=O)c2ccc3c(c2)OCO3)CC1	i	0.7%	2.1e-08	i	-2%
CC1CCCC(C)N1C(=O)CN1C(=O)C(C)(C)Oc2ccc(C(=O)NC3CCCCC3)cc21 (centres undefined)	i	-2.9%	2.9e-08	i	10%
CC(C)c1cc(C(=O)Nc2ccc3c(c2)OCO3)no1	·	-1.2%	·	·	13%
COc1ccc(CC(=O)Nc2oc(-c3ccccc3)c(-c3ccccc3)c2C#N)cc1OC	·	1.1%	·	·	?
O=C(CN1C(=O)c2ccccc2C1=O)OCC(=O)N1CCc2ccccc2C1	i	-0.6%	1.3e-08	i	2%
CCOC(=O)CSc1nnc(-c2ccc(S(=O)(=O)N3CCC(C)CC3)cc2)o1	i	-0.7%	4.6e-08	i	0%
Cc1nn(Cc2ccc(Cl)cc2Cl)c(C)c1NC(=O)c1nc2n(n1)C(C(F)F)CC(C)N2 (centres undefined)	i	1.4%	3.7e-09	i	10%
CC(=O)c1ccc(N2CCN(C(=O)CCS(=O)(=O)c3ccc(C)cc3)CC2)cc1	i	-1.3%	1.8e-08	i	12%
COc1ccc(N2C(=O)C3CCCN3C2c2ccc(C)cc2)cc1Cl (centres undefined)	i	1.7%	1.9e-09	i	22%
O=C(N1CCOCC1)N1CCN(c2nc(-c3ccccc3)cs2)CC1	i	0.4%	5.2e-09	i	-1%
O=C(Cc1c(C(=O)O)[nH]c2ccc(Cl)cc12)Nc1ccc2c(c1)OCCO2	i	-1.3%	7.8e-09	i	·
O=C(NCc1ccccc1)NC1(C(=O)Nc2ccc3c(c2)OCCO3)CCCCC1	i	-1.5%	5.7e-09	i	2µM*
Nc1cc(=O)[nH]c(SCc2cccc(Cl)c2)n1	i	0.6%	1e-09	i	-1%
CCC(=O)[C@]12O[C@@]3(C4C(=O)OCCC41)N(CC)C(C)=C(C(=O)OC)C(c1ccccc1)N3C2=O (some centres undefined)	·	-1.6%[11.5 µM]	·	·	-4%[11.4 µM]
Cc1ccc2c(c1)N(CCC(=O)NCC1COc3ccccc3O1)C(=O)CO2 (centres undefined)	i	0.3%	1e-09	i	?
CCN(CC)C(=O)COc1cccc2ccccc12	i	1.4%	4.6e-08	i	?
COc1ccc(-n2c(SCC(=O)Nc3cc(C)on3)nc3ccc(O)cc3c2=O)cc1OC	i	0.0%	3e-08	i	2%
CCC(C)Sc1nc2c(c(=O)[nH]c(=O)n2C)n1CC(O)COc1cccc2ccccc12 (centres undefined)	i	0.7%	2.2e-09	i	15%
CCC1SC(=NC(=O)c2ccc(Cl)c(Cl)c2)NC1=O (centres undefined)	·	-0.4%	·	·	1%[11.4 µM]
Cc1csc(N2CCc3ccccc32)n1	i	-4.1%	1.9e-08	i	19%
CC[C@@H]1OC(=O)[C@H](C)[C@H](O[C@@H]2C[C@](C)(OC)[C@H](O)[C@H](C)O2)[C@H](C)[C@H](O[C@@H]2O[C@@H](C)C[C@@H](N(C)C)[C@@H]2O)[C@](C)(O)C[C@H](C)C(=NOCOCCOC)[C@H](C)[C@H](O)[C@]1(C)O	i	-1.5%[25.7 µM]	1e-09	i	1%[25.6 µM]
O=C(O)c1cc(S(=O)(=O)Nc2ccc3c(c2)OCCO3)c(Cl)cc1Cl	·	2.7%	·	·	-4%
(cont.)
SMILES	A488 fluor	AID923	A647 autofl	Resorufin autofl	TSHR ag
O=C(c1nc2nc(-c3ccccc3)cc(C(F)(F)F)n2n1)N1CCCCC1	·	0.5%	·	·	-5%[11.4 µM]
CCOC(=O)c1nn(-c2ccccc2)c(C(=O)OCC)c1N	i	-0.9%	3.3e-09	i	8%
Cc1cccc(N2C(=O)CC(N3CCN(Cc4ccc5c(c4)OCO5)CC3)C2=O)c1 (centres undefined)	·	0.1%	·	·	9%
CC(C)(Oc1ccc(Cl)cc1)C(=O)NC1CCSC1=O (centres undefined)	i	-3.6%	1e-09	i	2%
O=C(Nc1cccc(F)c1)N1CCC2(CC1)CCN(C(=O)c1cccc(F)c1)CC2	i	1.4%	1e-09	i	-3%
Cc1ccc(S(=O)(=O)CCC(=O)OCC(=O)Nc2ncc(Cl)cc2Cl)cc1	i	1.2%	1.6e-08	i	-4%

Exported with each value named: entries from further up
> Cc1cc(C)cc(OCC(=O)NCC2CCCO2)c1 (centres undefined)
- A488 fluor = ·
- AID923 = 0.6%
- A647 autofl = ·
- Resorufin autofl = ·
- TSHR ag = 18%

> Cc1cc(=O)n2nc(N3CCC(C(=O)NCCC4=CCCCC4)CC3)sc2n1
- A488 fluor = i
- AID923 = -1.0%
- A647 autofl = 2.4e-08
- Resorufin autofl = i
- TSHR ag = 0%

> CCc1ccc(NC(=O)c2cc(C)on2)cc1
- A488 fluor = i
- AID923 = 2.2%
- A647 autofl = 1e-09
- Resorufin autofl = i
- TSHR ag = -4%

> COc1cccc(OCC(O)CN2CC(C)CC(C)C2)c1 (centres undefined)
- A488 fluor = i
- AID923 = -0.3%
- A647 autofl = 1.5e-08
- Resorufin autofl = i
- TSHR ag = 1%[11.4 µM]
